Bioassay records as filed in PubChem.
Menin MLL FP FL – qHTS Assay for Inhibitors Targeting the Menin-MLL Interaction in MLL Related Leukemias: Competition With Fluorescein Labeled MLL-derived Peptide; Fluorescence polarization, fluorescein-MLL peptide displacement from menin; FP activity change, % at 61.4 µM; 290,000 tested, under 10 active; inconclusive = falling polarisation curve, or a change in total fluorescence; inactive = total fluorescence flat and polarisation flat or rising; no compound was filed as active; the % refers to the polarisation; negative = inhibition;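 further: % of control where 0% means no effect; inhibitors lower the polarisation; unlabelled MLL peptide was the positive control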
ClpP mod – qHTS Assay for Activators of ClpP; ATP-dependent Clp protease proteolytic subunit (Bacillus subtilis (strain 168)), P80244; purified B. subtilis ClpP, FRET peptide cleavage, 20 min; Potency, µM (highest dose often 57.5 µM), inactives show top-dose activity change, negative = active; 340,000 compounds, 1.9% hits; AID 651965, 2013; active = well fitted falling curve with a large enough effect; inconclusive = small, poorly fitted or top-dose-only effect; inactive = no such curve, though single readings can be large or run the other way; further: potency means the concentration at half of the fitted maximal effect; the source files actives as falling curves though it sought activators and does not explain the sign; nearly all actives have a fitted effect of over 65% in size; many hits overshoot -100%
Target sequence (P80244 whole entry, looked up): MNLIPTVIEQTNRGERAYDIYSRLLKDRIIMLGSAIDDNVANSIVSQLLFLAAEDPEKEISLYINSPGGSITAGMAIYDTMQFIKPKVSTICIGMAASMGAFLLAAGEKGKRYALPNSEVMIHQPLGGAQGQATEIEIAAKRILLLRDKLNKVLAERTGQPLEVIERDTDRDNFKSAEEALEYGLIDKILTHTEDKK
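ClpP 10 microg/mL final, pH 8 Tris/KCl buffer with BSA, glycerol, Tween-20; compound pinned in; FRET-FV substrate; RT 20 min; Ex320/Em430; ΔFRET vs ADEP 5.8 microM, DMSO, no enzyme.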
gsp antagonist – qHTS for Antagonists of gsp, the Etiologic Mutation Responsible for Fibrous Dysplasia/McCune-Albright Syndrome: qHTS. Potency, µM (doses to about 76.9 µM), for the others: top-dose activity change, negative = inhibition, most hits filed as inhibitors. gsp-mutant cells, cAMP HTRF, 30 min; control for the full effect not named in the record. 340,000 compounds, 0.4% hits. AID 624288, 2012; active = falling curve of any shape with a large fitted effect; inconclusive = falling curve, mostly with a smaller effect; inactive = flat or rising curve; cell line not stated here;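 further: intracellular cAMP measured with PDE inhibitor Ro 20-1724 present during compound exposure; potency means the concentration at half of the fitted maximal effect; on the % scale 0 is the no-effect control and ±100 the full control effect; nearly all actives have a fitted effect of over 65% in size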
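HTRF cAMP read-out (cAMP-d2 plus anti-cAMP antibody-K in lysis buffer, 30 min RT). Before lysis, cells are exposed to compounds with […] for 30 min at 37C in DPBS containing Ca/Mg, BSA and Tween 20.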
PINK1 modulator – A Quantitative High throughput Screen to Identify Chemical Modulators of PINK1 Expression. PINK1 immunofluorescence, high-content cytometry, 24 h. 410,000 compounds, 0.2% hits. AID 624263, 2012. Potency, µM (highest dose often 76.6 µM), without a hit: at the highest dose activation (PINK1 increase), actives largely listed as activators; active = well fitted activation curve with a large enough effect; inconclusive = small, poorly fitted or top-dose-only effect; inactive = flat fitted curve, though single readings scatter; cell line not stated here;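 further: potency means the concentration at half of the fitted maximal effect; % of control where 0% means no effect; nearly all actives have a fitted effect of over 65% in size; a mitochondrial uncoupler was the plate control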
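Cells are seeded, rested 12 hours, then given compound at five concentrations or DMSO for 24 hours. After fixation, blocking and antibody staining, PINK1 amount and mitochondrial localization are scored; CCCP serves as control.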
Sfp inh – qHTS Assay for Inhibitors of Bacillus subtilis Sfp phosphopantetheinyl transferase (PPTase); 4'-phosphopantetheinyl transferase ffp (Bacillus subtilis), Q9F4F7; Biochemical Sfp PPTase activity, qHTS; Potency, µM, without a hit: max response, negative = inhibition, usual class: inhibitors; 310,000 compounds, 3.5% hits; AID 1490, 2009; active means well fitted inhibition curve with a large enough effect; inconclusive means small, poorly fitted or top-dose-only effect, or another doubt; inactive means no such curve, though single readings can be large or run the other way;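 further: the enzyme is Sfp with the accession as filed and its product quenches rhodamine fluorescence; potency means the concentration at half of the fitted maximal effect; 0% = enzyme reaction without inhibitor and -100% = no enzyme wells; top concentration of the series not given in the record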
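After 15 min at room temperature with compound, 15 nM Sfp received 5 uM rhodamine-CoA plus 12.5 uM BHQ-2-ybbR (50 mM Hepes pH 7.6, 10 mM MgCl2). Rate came from the fluorescence difference over 30 min, ex 525/em 598 nm.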
gsp agonist – qHTS for Agonist of gsp, the Etiologic Mutation Responsible for Fibrous Dysplasia/McCune-Albright Syndrome: qHTS; AID 624287, 2012; gsp mutant cells, cAMP HTRF, 30 min; control for the full effect not named in the record; 340,000 compounds, 0.13% hits; Potency, µM (series often up to 76.9 µM), for the others: at the highest dose activation (cAMP increase), most hits filed as activators; active = well fitted activation curve with a large enough effect; inconclusive = small, poorly fitted or top-dose-only effect, or another doubt; inactive = no such curve, though single readings can be large or run the other way; cell line not stated here;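 further: phosphodiesterase inhibitor Ro 20-1724 added with compounds to block cAMP breakdown; potency means the concentration at half of the fitted maximal effect; nearly all actives have a fitted effect of over 60% in size; about a fifth of the inactives were tested at one dose only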
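Cells in DMEM/10% FBS with G418 were pretreated with compounds in DMSO plus […] (300 uM stock) for 30 min at 37C. cAMP was measured by HTRF (cAMP-d2 plus anti-cAMP antibody-K) after 30 min at room temperature.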
D2 agonist – Beta-Arrestin HTS for Positive Allosteric Modulators of the Human D2 Dopamine Receptor: Agonists; activation, % (no concentration beside the values); DiscoveRx PathHunter D2 beta-arrestin, luminescence, 90 min; 100% = 57 uM dopamine signal; AID 624465, 2012; D(2) dopamine receptor (Homo sapiens), P14416; 360,000 compounds, 0.084% hits; in the data active = activation above about 40%; inconclusive = about 15% to 40%; inactive = below about 15%; further: compound concentration not given in the record; the text of the record calls up to 30% inactive
Target sequence (P14416 whole entry, looked up): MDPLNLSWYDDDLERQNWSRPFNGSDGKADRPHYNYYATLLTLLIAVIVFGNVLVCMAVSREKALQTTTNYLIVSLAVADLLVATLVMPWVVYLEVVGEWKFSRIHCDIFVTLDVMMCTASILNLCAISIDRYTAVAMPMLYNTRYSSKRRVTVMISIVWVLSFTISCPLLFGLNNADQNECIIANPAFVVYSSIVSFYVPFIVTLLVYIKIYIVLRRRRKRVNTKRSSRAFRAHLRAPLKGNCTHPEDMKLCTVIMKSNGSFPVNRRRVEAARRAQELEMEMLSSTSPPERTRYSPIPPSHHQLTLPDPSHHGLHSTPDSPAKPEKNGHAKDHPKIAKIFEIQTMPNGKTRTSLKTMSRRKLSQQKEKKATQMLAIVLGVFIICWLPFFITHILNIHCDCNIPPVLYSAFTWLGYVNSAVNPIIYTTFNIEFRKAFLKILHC
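Agonist mode: compounds alone added to overnight-plated D2 PathHunter cells for 90 min at 37 C, with 57 uM final dopamine (EC100) defining full response. Beta-arrestin recruitment detected by chemiluminescent reagent, read after 1 h at ambient temperature.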
Starred values were filed as active, the others as inactive; ? = inconclusive; . = no result given; & = joins results of further samples; [ ] = dose if it differs, or a comment.

Under each structure: Menin MLL FP FL, ClpP mod, gsp antagonist, PINK1 modulator, Sfp inh, gsp agonist, D2 agonist
1	Cc1ccc(NC(=O)c2c(C(=O)Nc3ccccc3)sc3nc(C)cc(=O)n23)cc1
    -4.4, 2.7%, -4%, 1.9%&0.7%, -21%, 6%[15.4 µM], -1.5
2	Cn1c(=O)n(C)c2cc(NC(=O)c3ccc(F)cc3)c(Br)cc21
    -7.2, -7.1%, -5%, 0.9%, -17%, -1%[15.4 µM], 4.1
3	CC(=O)Nc1cccc(NC(=O)CSc2nccn2Cc2ccccc2)c1
    ., -2.0%&0.2%, -10%, ?, 17%, 0%, -4.3
4	O=C(CN1CCC(n2nnc3cc(C(F)(F)F)ccc32)CC1)NCc1cccs1
    -0.4, 0.4%, -22%, -1.1%, -6%, 5%[15.4 µM], -3.1
5	CN(C)CCCOc1cccc(Cl)c1
    11, -2.7%, 5%, 1.2%, -19%, -5%, -1.1
6	O=C(c1ccc(N2CCCC2=O)cc1)N1CCN(c2ccc(Cl)cc2)CC1
    ., 2.8%, ?, -0.2%, 10%, 8%, 0.6
7	O=C(O)CCn1c(SCCc2ccccc2)nc2ccccc21
    ., 1.9%, -21%, 5.0%, ., 7%[15.4 µM], -3.8
8	CN(C)/C=N/c1cc(=O)n(Cc2ccccc2)c(=O)n1C
    1.3&2.5, -0.1%, -3%, 0.1%, 17%&8%, 6%, 2.6
9	CC1C/C(=C/c2ccccn2)C(=O)/C(=C/c2ccccn2)C1 (stereo unspecified)
    -6.0, ., -18%, 8.4%, 45µM*, 0%[15.4 µM], -6.4
10	CCN(CC)c1ccc(S(=O)(=O)N2CCCCC2)cc1NC(=O)C1CSC2(C)CCC(=O)N12 (stereo unspecified)
    ., 1.1%, ?, 1.0%, ., 5%, 3.0
11	Brc1ccc(-c2noc(CCc3ccccc3)n2)cc1
    ., -0.4%, 9%, ?, ., -56%[inhibitor], -4.2
12	O=C(NNC(=O)C12CC3CC(CC(Cl)(C3)C1)C2)c1csc(N2CCOCC2)n1
    ., ., 4%, 3.8%, -1%, -5%[15.4 µM], -4.7
13	CC1(C)CC(C)(O)P(=O)(c2ccccc2)O1 (stereo unspecified)
    4.8, -2.4%, 8%, 0.1%, 15%, ?, 0.5
14	COc1ccc(N2CCN(C(=O)COC(=O)c3c(-c4ccccc4)noc3C)CC2)cc1
    ., 0.5%, -9%, 2.2%, ., 0%, 3.9
15	CC(C)C[C@H](NC(=O)NC(C)C)C(=O)O
    0.6, -1.4%, 11%, 12%[38.3 µM], 29%, -9%, -1.7
16	Cc1cc([N+](=O)[O-])nn1CCCC(=O)Nc1cc(Oc2ccccc2)cc([N+](=O)[O-])c1
    -1.4, 1.9%, -5%, 2.8%, -2%, 10%, -1.6
17	CC1Cc2ccccc2N1C(=O)c1cnsn1 (stereo unspecified)
    -0.2, -1.1%, 6%, -0.8%, 16%, 13%, -1.6
18	COc1ccc2c(c1)OC[C@H]1[C@H]2N2C(=O)CNC(=O)[C@@]2(C)[C@H]1c1ccccc1
    ., 1.1%, 4%, 1.1%, ., ?, -1.8
19	Cc1ccc(S(=O)(=O)N2CCC(C(=O)NCCCn3ccnc3)CC2)cc1
    ., 16µM*, 12%, 2.9%, 26%, -2%[15.4 µM], -0.9
20	O=C(NCc1ccco1)/C(=C\C=C\c1ccccc1)NC(=O)c1ccccc1Br
    16, ., -24%, 3.2%, ?, -9%[15.4 µM], -6.0

2 entries drawn at random from the list so far, as already listed:
Under each structure: Menin MLL FP FL, ClpP mod, gsp antagonist, PINK1 modulator, Sfp inh, gsp agonist, D2 agonist
4	O=C(CN1CCC(n2nnc3cc(C(F)(F)F)ccc32)CC1)NCc1cccs1
    -0.4, 0.4%, -22%, -1.1%, -6%, 5%[15.4 µM], -3.1
6	O=C(c1ccc(N2CCCC2=O)cc1)N1CCN(c2ccc(Cl)cc2)CC1
    ., 2.8%, ?, -0.2%, 10%, 8%, 0.6

New compounds follow.
Under each structure: Menin MLL FP FL, ClpP mod, gsp antagonist, PINK1 modulator, Sfp inh, gsp agonist, D2 agonist
21	COc1cccc(CNC(=O)CN2C(=O)COc3ccc(S(=O)(=O)N4CCCCC4)cc32)c1
    ., -4.0%&-1.6%, -12%, -0.6%&-1.1%, 10%, -43%[inhibitor], -5.3
22	Cc1ccc(C)c(SCC(=O)OC/C(O)=C(\C#N)c2nc3ccccc3[nH]2)c1
    ?, -8.4%, -3%, 9.4%, 10%, -11%, 6.7
23	COc1ccc(C2CC(c3cccc([N+](=O)[O-])c3)=NN2/C(C)=C/C(C)=O)cc1 (stereo unspecified)
    ., -0.1%, ., 3.3%, ., 18%, -3.5
24	CCC(=O)Nc1cccc(-c2cnc3ccccc3n2)c1
    -1.0, 1.5%, -4%, 7.9%[38.3 µM], 11%, ?, -2.5
25	COC(=O)C1C(=O)C2=C(CC1C)Nc1ccccc1NC2c1ccc(C)s1 (stereo unspecified)
    2.8, ., -4%, 1.8%, 19%, 9%, -4.2
26	O=C(c1ccccc1[N+](=O)[O-])N1CC2C3C=CC(C3)C2C1 (stereo unspecified)
    -2.3, ., 0%, 0.6%, 19%, -48%[inhibitor], 1.3
27	O=C1CC(=Nc2ccc([N+](=O)[O-])cc2)NN1c1c(Cl)cc(Cl)cc1Cl
    ., 0.2%, ., 5.8%, ., 23%, -4.6
28	COc1ccc(S(=O)(=O)N(C)CC(=O)Nc2ccccc2C(F)(F)F)cc1Cl
    0.8, -0.1%, 12%, 4.9%[38.3 µM], -2%, -17%, 0.9
29	c1cc2c3c(cccc3c1)C(N1CCCCC1)=N2
    -8.3, 1.3%, -14%, 0.4%, -6%, -61%[inhibitor], -0.5
30	Cc1cccc(C(CC(=O)O)n2cccc2)c1 (stereo unspecified)
    3.9, 0.0%, -7%, -0.6%, 23%, -6%, -3.5
31	O=C(Nc1cccc(-c2cnc3ccccc3n2)c1)c1ccccc1
    1.8, -2.5%, 7%, 11%[38.3 µM], -12%, 11%, -1.7
32	O=c1c2ccccc2ncn1CCOCCOc1cccc(Br)c1
    9.5, -1.9%, -6%, 1.2%, 3%, 13%[15.4 µM], -3.2
33	CCS(=O)(=O)N1CCN(C(=O)c2ccccc2)CC1
    3.8, -1.0%, 8%, 0.1%, 17%, -27%, 2.1
34	COc1ccc(-c2cc(=O)c3cc(O)ccc3o2)cc1
    -3.5, -3.4%, -4%, 0.5%, 17%, ., 8.3
35	CCOC(=O)c1ccc(CSc2nnc(C)n2N)o1
    3.2, 0.9%, 1%, 4.1%, 10%, -6%, -0.8
36	COc1ccc(N=C(C)c2sc3ccccc3c2O)cc1
    ?, ., 8%, 2.7%, -23%, 3%[15.4 µM], -2.0
37	Cc1nc2c(cnn2-c2ccccc2Cl)c(=O)n1-c1ccc(C(C)C)cc1
    1.5, 1.3%&-2.3%, 35µM*, 2.5%&0.2%, 6%, -35%[inhibitor], 0.2
38	C=CCn1c(C)cc(-c2csc(N)n2)c1C
    -16, 0.3%, -1%, 2.8%[38.3 µM], 40µM*, -1%, -0.5
39	COc1cc(/C=C2\SC(=Nc3ccc(N4CCOCC4)cc3)N(C)C2=O)ccc1OC(C)C(=O)O (stereo unspecified)
    ., 1.0%, -2%, 1.9%, 11%, -12%, -1.1
40	Cc1ccccc1Nc1nc(N)nc(CSc2nnnn2-c2ccccc2)n1
    1.6, 0.9%, 8%, -7.3%[38.3 µM], -1%, -1%, 1.4
41	COc1ccc(NC(=O)CO/N=C2/CCCc3nonc32)c(OC)c1
    4.8, ?, -2%, -1.7%, 13%, 1%[15.4 µM], -2.9
42	C=CCCC(=O)Nc1nc(C)c(-c2csc(Nc3ccccc3OC)n2)s1
    0.6, -29%, 1%, 3.9%, 6%, 18%, -1.4
43	Cc1ccc2nc(N3CCN(Cc4ccc(F)cc4)C3=O)c(C)cc2c1
    2.2, ?, -15%, -0.2%, -9%, -2%, -1.3
44	O=C1CCC(C(=O)N2CCN(c3cnccn3)CC2)CN1CCc1ccccc1 (stereo unspecified)
    ., -21%, ., 1.5%, ., ?, -0.7
45	O[C@H]1C[C@H](c2ccccc2)N(CC2CCCCC2)C[C@@H]1n1cc(C2CC2)nn1
    ., 0.8%, ., -1.0%, ., -43%[inhibitor], -3.9
46	O=C(N/N=C/c1cc2ccccc2[nH]1)c1ccccc1Cl
    3.4, ., 7%, 0.9%, 17%, -7%[15.4 µM], 0.6
47	CCCc1ccc(S(=O)(=O)N(C)S(=O)(=O)c2ccc(F)cc2)cc1
    3.4, 0.4%, -4%, 1.8%, 13%, 20%, 4.8
48	COc1ccc(NC(=O)N(C)C[C@H]2Oc3ncc(C#C[C@@H](C)O)cc3C(=O)N([C@H](C)CO)C[C@H]2C)cc1
    ., -4.4%, ., 0.9%, ., -43%[inhibitor], -8.6

2 of the compounds above, in transposed form:
(39) COc1cc(/C=C2\SC(=Nc3ccc(N4CCOCC4)cc3)N(C)C2=O)ccc1OC(C)C(=O)O (stereo unspecified)
(40) Cc1ccccc1Nc1nc(N)nc(CSc2nnnn2-c2ccccc2)n1

| assay / compound | 39 | 40 |
| --- | --- | --- |
| Menin MLL FP FL | . | 1.6 |
| ClpP mod | 1.0% | 0.9% |
| gsp antagonist | -2% | 8% |
| PINK1 modulator | 1.9% | -7.3%[38.3 µM] |
| Sfp inh | 11% | -1% |
| gsp agonist | -12% | -1% |
| D2 agonist | -1.1 | 1.4 |
